L3MBTL1 block: blocks human L3MBTL1. AlphaScreen L3MBTL1–H3K9me1 peptide binding. Potency, µM (series often up to 57.1 µM), for the others: top-dose activity, negative = inhibition, most hits filed as inhibitors. 0.66% of 230,000 active. AID 485360; also: nearly all actives have a fitted effect of over 60% in size
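L3MBTL1 (50 nM) pre-complexed 30 min with biotinylated H3(1-15)K9me1 peptide (75 nM), then compounds added for 30 min at room temperature; AlphaScreen streptavidin donor/nickel chelate acceptor beads (10 ug/mL final) read after 30 min dark incubation.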
GAA glycogen: alters human alpha-glucosidase cleavage of glycogen; Potency, µM (titrated, usually from 76.4 µM), without a hit: at the top dose activity change, negative = inhibition, actives largely listed as inhibitors; P10253; recombinant GAA, glycogen substrate, Amplex Red glucose oxidase fluorescence; 0.38% of 300,000 active;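 also: 0% = full enzyme reaction and -100% = no-enzyme basal signal; the screen sought inhibitors and activators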
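Natural-substrate format: glycogen cleavage by 4 nM human enzyme, glucose read by Amplex Red coupling (Ex 573, Em 610 nm). Normalized to enzyme and no-enzyme controls.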
GoLoco inh red: blocks human Gai1 binding to RGS12 GoLoco peptide, red readout; Potency, µM (top dose mostly 61.6 µM), inactives show top-dose activity, negative = inhibition, most hits filed as inhibitors; 0.44% of 230,000 active; Gai1:RGS12 GoLoco peptide FP, rhodamine, 10 min; active = well fitted inhibition curve with a large enough effect, not every such curve was filed as active; inactive = no such curve, though single readings can be large or run the other way; also: nearly all actives have a fitted effect of over 30% in size; many of its hits are not listed in these tables
Target sequence (P63096 whole entry, looked up): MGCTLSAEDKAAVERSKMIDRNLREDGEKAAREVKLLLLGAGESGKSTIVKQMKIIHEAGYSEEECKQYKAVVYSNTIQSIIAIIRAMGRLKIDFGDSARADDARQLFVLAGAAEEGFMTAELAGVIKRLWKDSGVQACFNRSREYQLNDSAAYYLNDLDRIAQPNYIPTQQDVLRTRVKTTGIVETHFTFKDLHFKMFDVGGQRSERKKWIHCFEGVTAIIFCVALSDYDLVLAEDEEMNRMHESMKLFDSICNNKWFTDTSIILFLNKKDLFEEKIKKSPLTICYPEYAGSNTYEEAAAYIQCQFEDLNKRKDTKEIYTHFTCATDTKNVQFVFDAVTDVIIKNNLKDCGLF
RECQ1 helicase: blocks DNA unwinding by human RECQ1; Potency, µM (doses to about 57.3 µM), inactives show at the highest dose activity, negative = inhibition, most hits filed as inhibitors; RECQ1 DNA unwinding, red fluorescence kinetic read; P46063; 0.54% of 240,000 active;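 also: plate controls were vehicle for no effect and no enzyme for full effect; nearly all actives have a fitted effect of over 30% in size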
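50 nM RECQ1T1 preincubated 15 min with compound in Tris pH 8.0 buffer with MgCl2, DTT, Tween-20 and 2.5 ug/ml poly(dI-dC); started with 200 nM TAMRA/BHQ-2 forked duplex and 2 mM ATP. Unwinding read as fluorescence (525/598 nm), two reads 2 h apart.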
aGlu spleen mod: inhibits or activates alpha-glucosidase in human spleen homogenate. P10253. human spleen homogenate, 4-MU-alpha-glucoside fluorescence. Potency, µM (titrated, usually from 79.9 µM), without a hit: at the top dose activity change, negative = inhibition, usual class: inhibitors. 0.006% of 240,000 active. AID 2112;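 also: 0% = enzyme with vehicle and -100% = no enzyme basal signal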
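Human spleen homogenate (1 ug) incubated with compounds and 1 mM 4-methylumbelliferyl-alpha-D-glucopyranoside in pH 5.0 citrate/phosphate buffer, 37 C, 40 min. Stopped at pH 10; 4-MU fluorescence (Ex 365/Em 440 nm); AC50 by Hill fit.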
GAA inhib: alpha-glucosidase (human) inhibition | Potency, µM (doses to about 76.9 µM), for the others: top-dose activity change, negative = inhibition, actives largely listed as inhibitors | 0.005% of 200,000 active | purified human GAA, 4-MU-alpha-glucoside fluorescence | P10253;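 also: plate controls were uninhibited enzyme wells for no effect and no-enzyme background for full effect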
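Fluorogenic assay: 4 nM human alpha-glucosidase with 400 uM 4-methylumbelliferyl-alpha-D-pyranoside in 50 mM citrate/phosphate, 0.005% Tween-20, pH 5.0, 20 min at room temperature. Compounds tested up to 77 uM; AC50 from Hill fits.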
The depositor's hits bear a star; i = inactive; ? = inconclusive; / = not tested or not shown; & = joins results of further samples; [ ] = another dose, or the depositor's remark. Unless noted, calls follow the shape of the dose curve; as a rule, active = well fitted curve in the direction sought with a large enough effect; inconclusive = small, poorly fitted or top-dose-only effect, or another doubt; inactive = no such curve, though single readings can be large; an effect the other way counts as inactive or inconclusive. Unless noted, % is scaled to controls: 0 for no effect and ±100 for the full control effect; potency is read from the fitted curve at half-maximal effect. The list is partial (hit frequency here may not be typical).

1. NC(=O)c1cnccn1
2. COc1ccc2c(c1OC)C(=O)OC2[C@H]1c2c(cc3c(c2OC)OCO3)CCN1C (some centres undefined)
3. O=C(O)[C@H]1C[C@@H](CP(=O)(O)O)CCN1
4. CC12C=CC(=O)C=C1[C@@H](F)CC1C2C(O)CC2(C)C1CC[C@]2(O)C(=O)CO (some centres undefined)
5. CCc1ccccc1

compound no.	1	2	3	4	5
L3MBTL1 block	0.6%	/	/	/	/
GAA glycogen	4.5%	/	/	/	/
GoLoco inh red	5.5%&-7.3%&-9.1%&4.3%	5.1%[21.6 µM]	2.8%	6.9%	4.4%
RECQ1 helicase	-9.7%&-4.2%&12.6%&2.0%	i	6.3%&-6.3%	i	4.7%
aGlu spleen mod	5.7%&1.0%&-17.0%&5.4%	-2.1%[29.1 µM]	18.3%&-3.4%	0.1%	10.7%
GAA inhib	-15.7%[15.4 µM]	/	/	/	/

6. O=C(O)c1ccc(OCCCOc2ccc(C(=O)O)cc2)cc1
7. N#Cc1c(-c2cccs2)cc(-c2cccs2)[nH]c1=O
8. C=CCOc1ccccc1OCC(O)CNC(C)C (centres undefined)
9. CCN1CCN(CCCOc2ccc(Cl)cc2Br)CC1
10. Cc1ccc(Cl)c(Nc2ccccc2C(=O)O)c1Cl

compound no.	6	7	8	9	10
L3MBTL1 block	/	/	-6.1%	25.8%	-5.1%&-1.9%
GAA glycogen	/	2.0%	/	-1.9%	-2.8%
GoLoco inh red	/	2.3%	/	-12.1%	-4.7%
RECQ1 helicase	9.0%	-5.3%	/	i	4.7%
aGlu spleen mod	4.2%	-1.8%	/	0.2%	-27.4%
GAA inhib	/	/	/	-4.8%	?

Three compounds from above, ordered by their value in RECQ1 helicase, highest first.
nr | SMILES | RECQ1 helicase
6 | O=C(O)c1ccc(OCCCOc2ccc(C(=O)O)cc2)cc1 | 9.0%
10 | Cc1ccc(Cl)c(Nc2ccccc2C(=O)O)c1Cl | 4.7%
7 | N#Cc1c(-c2cccs2)cc(-c2cccs2)[nH]c1=O | -5.3%

The list continues:
11. O=C(O)c1cc(S(=O)(=O)O)ccc1O
12. O=c1c(O)c(-c2ccc(O)cc2O)oc2cc(O)cc(O)c12
13. Cc1c2ccccc2c(C)c2c1ccc1ccccc12
14. CCCCCCCC[N+](CCCCCCCC)(CCCCCCCC)CCCCCCCC
15. CC(C)(C)NCC(O)COc1cccc2c1CCC(=O)N2 (centres undefined)

compound no.	11	12	13	14	15
L3MBTL1 block	1.4%	?	67.0%[activator]	/	-1.6%
GAA glycogen	6.0%	3.16µM*	/	/	/
GoLoco inh red	11.1%	8.3%&8.9%&26.3%&0.8%	4.4%	4.9%	/
RECQ1 helicase	-3.5%	7.08µM*	-9.8%	-6.2%	/
aGlu spleen mod	-2.4%	-10.5%&4.1%&7.9%&5.5%	-3.4%	2.2%	/
GAA inhib	-6.1%	0.0%[15.4 µM]	/	/	/

16. CCCCC[C@H](O)/C=C/[C@@H]1[C@@H](C/C=C\CCCC(=O)O)[C@@H](O)C[C@@H]1O
17. CN1C(=O)CC[C@@H]1c1cccnc1
18. c1ccc(Nc2ccccc2)cc1
19. CCCSc1ccc2nc(NC(=O)OC)[nH]c2c1
20. N[C@@H](Cc1cc(I)c(Oc2cc(I)c(O)c(I)c2)c(I)c1)C(=O)O

compound no.	16	17	18	19	20
L3MBTL1 block	/	/	6.4%	17.0%	/
GAA glycogen	/	/	/	8.3%	/
GoLoco inh red	0.8%&-0.6%	4.5%[21.6 µM]	2.1%	10.4%	4.1%
RECQ1 helicase	14.6%&-15.6%	i	-17.0%	-3.7%	/
aGlu spleen mod	-3.3%&6.6%	1.9%[29.1 µM]	-1.6%	-2.7%	/
GAA inhib	/	/	/	?	/

21. Nc1ncnc2c1ncn2[C@@H]1O[C@H](CO)[C@H](O)[C@H]1O
22. CCN1CCN(CCCNC(=O)c2ccc3c(c2)sc2nc(-c4ccc(OC)cc4)cn23)CC1
23. CNC1C(OC2C(O[C@@H]3C(O)C(O)[C@@H](N=C(N)N)C(O)C3N=C(N)N)OC(C)[C@@]2(O)CO)OC(CO)C(O)C1O (some centres undefined)
24. CCC(=O)OCC(=O)[C@@]1(OC(=O)CC)[C@@H](C)C[C@H]2[C@@H]3CCC4=CC(=O)C=C[C@]4(C)[C@@]3(F)[C@@H](O)C[C@@]21C
25. CO[C@]1(NC(=O)[C@H](C(=O)O)c2ccc(O)cc2)C(=O)N2C(C(=O)O)=C(CSc3nnnn3C)CO[C@H]21

compound no.	21	22	23	24	25
L3MBTL1 block	/	/	/	/	/
GAA glycogen	/	-1.9%[76.3 µM]	/	/	/
GoLoco inh red	5.7%	/	-1.9%	-0.5%	-8.9%[21.6 µM]
RECQ1 helicase	i	/	i	-12.3%	-6.3%[25.9 µM]
aGlu spleen mod	1.9%	/	-7.2%	-4.3%	2.9%[29.1 µM]
GAA inhib	/	/	/	/	/

26. CC(=O)Nc1c(I)c(C(=O)N[C@H]2C(O)O[C@H](CO)[C@@H](O)[C@@H]2O)c(I)c(N(C)C(C)=O)c1I (some centres undefined)
27. CSCCC=O
28. CC(C)(C)c1cc(O)c(C(C)(C)C)cc1O
29. CN1/C(=C\C=O)C(C)(C)c2ccccc21
30. COC(=O)CS

compound no.	26	27	28	29	30
L3MBTL1 block	2.5%	/	/	-4.4%	/
GAA glycogen	/	/	/	5.8%	/
GoLoco inh red	/	3.8%	-10.2%&-9.0%	118.2%[activator]	2.0%
RECQ1 helicase	/	9.7%	9.8%&-8.0%	-6.6%	14.2%
aGlu spleen mod	/	-15.9%	-11.4%&-4.7%	-8.3%	13.8%
GAA inhib	/	/	/	3.9%	/

31. NC(Cc1cc(I)c(Oc2cc(I)c(O)c(I)c2)c(I)c1)C(=O)O (centres undefined)
32. C[C@@H]1CN(c2c(F)c(N)c3c(=O)c(C(=O)O)cn(C4CC4)c3c2F)C[C@H](C)N1
33. CCCCC[C@H](O)/C=C/[C@@H]1[C@@H](C/C=C\CCCC(=O)O)[C@@H](O)C[C@H]1O
34. CN1CCN(C2=Nc3ccccc3Sc3ccc(Cl)cc32)CC1
35. COc1cc(C)c(Cc2cnc(N)nc2N)cc1OC
36. COC(=O)[C@@H]1[C@H]2C[C@H]3c4[nH]c5ccccc5c4CCN3C[C@H]2CC[C@@H]1O

compound no.	31	32	33	34	35	36
L3MBTL1 block	/	/	1.8%	/	/	/
GAA glycogen	/	-6.1%	-10.4%	/	6.1%	/
GoLoco inh red	-4.0%	7.6%	4.2%&-1.0%&17.6%	-1.6%&-3.0%	10.9%	-2.5%&24.8%
RECQ1 helicase	i	9.5%	6.4%&17.6%	4.5%	5.0%	-0.3%
aGlu spleen mod	1.7%	-6.5%&1.7%	6.3%&-0.7%	-0.5%	-0.6%	9.3%&-0.9%
GAA inhib	/	-8.3%[15.4 µM]	6.6%[15.4 µM]	/	1.9%[15.4 µM]	/

An excerpt from above in order of molecular weight, high to low.
25. CO[C@]1(NC(=O)[C@H](C(=O)O)c2ccc(O)cc2)C(=O)N2C(C(=O)O)=C(CSc3nnnn3C)CO[C@H]21
34. CN1CCN(C2=Nc3ccccc3Sc3ccc(Cl)cc32)CC1
12. O=c1c(O)c(-c2ccc(O)cc2O)oc2cc(O)cc(O)c12
35. COc1cc(C)c(Cc2cnc(N)nc2N)cc1OC
19. CCCSc1ccc2nc(NC(=O)OC)[nH]c2c1
13. Cc1c2ccccc2c(C)c2c1ccc1ccccc12
28. CC(C)(C)c1cc(O)c(C(C)(C)C)cc1O

compound no.	25	34	12	35	19	13	28
L3MBTL1 block	/	/	?	/	17.0%	67.0%[activator]	/
GAA glycogen	/	/	3.16µM*	6.1%	8.3%	/	/
GoLoco inh red	-8.9%[21.6 µM]	-1.6%&-3.0%	8.3%&8.9%&26.3%&0.8%	10.9%	10.4%	4.4%	-10.2%&-9.0%
RECQ1 helicase	-6.3%[25.9 µM]	4.5%	7.08µM*	5.0%	-3.7%	-9.8%	9.8%&-8.0%
aGlu spleen mod	2.9%[29.1 µM]	-0.5%	-10.5%&4.1%&7.9%&5.5%	-0.6%	-2.7%	-3.4%	-11.4%&-4.7%
GAA inhib	/	/	0.0%[15.4 µM]	1.9%[15.4 µM]	?	/	/

29. CN1/C(=C\C=O)C(C)(C)c2ccccc21
1. NC(=O)c1cnccn1
5. CCc1ccccc1

compound no.	29	1	5
L3MBTL1 block	-4.4%	0.6%	/
GAA glycogen	5.8%	4.5%	/
GoLoco inh red	118.2%[activator]	5.5%&-7.3%&-9.1%&4.3%	4.4%
RECQ1 helicase	-6.6%	-9.7%&-4.2%&12.6%&2.0%	4.7%
aGlu spleen mod	-8.3%	5.7%&1.0%&-17.0%&5.4%	10.7%
GAA inhib	3.9%	-15.7%[15.4 µM]	/
